Screening data as filed in PubChem.
PINK1 modulator – A Quantitative High throughput Screen to Identify Chemical Modulators of PINK1 Expression | PINK1 immunofluorescence, high-content cytometry, 24 h | Potency, µM (top dose mostly 76.6 µM), inactives show top-dose activation (PINK1 increase), usual class: activators | 410,000 compounds, 0.2% hits | AID 624263, 2012; active = well fitted activation curve with a large enough effect; inconclusive = small, poorly fitted or top-dose-only effect; inactive = flat fitted curve, though single readings scatter; cell line not stated here;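 note: potency is the fitted concentration of half-maximal effect; % of control where 0% means no effect; nearly all actives have a fitted effect of over 65% in size; a mitochondrial uncoupler was the plate control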
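Stable cell line, 250 cells/well, 12 h attachment; compounds pinned at 5 concentrations, 24 h; CCCP control. Fixed with nuclear dye, primary antibodies 12 h at 10 degrees C, secondary plus cell stain; laser-scanning cytometer read.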
Sfp inh – qHTS Assay for Inhibitors of Bacillus subtilis Sfp phosphopantetheinyl transferase (PPTase) | AID 1490, 2009 | 310,000 compounds, 3.5% hits | Biochemical Sfp PPTase activity, qHTS | Potency, µM, inactives show max response, negative = inhibition, hits mostly inhibitors; active = well fitted inhibition curve with a large enough effect; inconclusive = small, poorly fitted or top-dose-only effect, or another doubt; inactive = no such curve, though single readings can be large or run the other way;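 note: the enzyme is Sfp with the accession as filed and its product quenches rhodamine fluorescence; potency is the fitted concentration of half-maximal effect; 0% = enzyme reaction without inhibitor and -100% = no enzyme wells; top concentration of the series not given in the record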
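After 15 min at room temperature with compound, 15 nM Sfp received 5 uM rhodamine-CoA plus 12.5 uM BHQ-2-ybbR (50 mM Hepes pH 7.6, 10 mM MgCl2). Rate came from the fluorescence difference over 30 min, ex 525/em 598 nm.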
D2 potentiator – Beta-Arrestin HTS for Positive Allosteric Modulators of the Human D2 Dopamine Receptor: Potentiators; D(2) dopamine receptor (Homo sapiens), P14416; DiscoveRx D2 beta-arrestin cells, luminescence, 90 min; 100% = 57 uM dopamine signal; potentiation, % (concentration not given with the values); 360,000 compounds, 0.23% hits; AID 624464, 2012; active = potentiation of 50% or more; inconclusive = 30% to 50%; inactive = 30% or less;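 note: tested on top of an EC20 dose of dopamine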
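PathHunter D2 cells, attached overnight at 37 deg C, received compound in DMSO plus dopamine at EC20 (50 nM final) for 90 min at 37 deg C. Beta-arrestin recruitment was read as luminescence after 1 h with detection reagent at ambient temperature.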
TRPV1 PAM – HTS Assay for Compounds that Act as Potentiators of the Vanilloid Receptor 1. potentiation, % at 8.33 µM. TRPV1-expressing cells, Fluo-8 calcium influx, capsaicin EC20 potentiation; host cell line not named in the record; control for the full effect not named in the record. 320,000 compounds, 0.02% hits. Transient receptor potential cation channel subfamily V member 1 (Homo sapiens), Q8NER1; active means potentiation above 80%; inconclusive means 30% to 80%; inactive means below 30%; note: 0% is about no effect
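Cells expressing TRPV1 were dye-loaded with Fluo-8 and read kinetically: 10 s baseline, 3 min after compound (agonist portion), then 2 min after EC20 capsaicin (allosteric enhancer portion). Calcium-bound dye fluorescence at 480/520 nm.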
Six1-Eya2 inh – qHTS Assay for Inhibitors of the Six1/Eya2 Interaction; activity change, % (concentration not given with the values); Homeobox protein SIX1 (Homo sapiens) + Protein phosphatase EYA2 (Homo sapiens), …; AID 651725, 2012; AlphaScreen GST-Six1/His-Eya2 binding, biochemical; hits give low values; control for the full effect not named in the record; 360,000 compounds, 0.56% hits; in the data active = activity change below about -65%; inconclusive = about -30% to -65%; inactive = above about -30%; note: % is set by controls: 0 for no effect and ±100 for the full control effect
Target sequence (O00167 whole entry, looked up): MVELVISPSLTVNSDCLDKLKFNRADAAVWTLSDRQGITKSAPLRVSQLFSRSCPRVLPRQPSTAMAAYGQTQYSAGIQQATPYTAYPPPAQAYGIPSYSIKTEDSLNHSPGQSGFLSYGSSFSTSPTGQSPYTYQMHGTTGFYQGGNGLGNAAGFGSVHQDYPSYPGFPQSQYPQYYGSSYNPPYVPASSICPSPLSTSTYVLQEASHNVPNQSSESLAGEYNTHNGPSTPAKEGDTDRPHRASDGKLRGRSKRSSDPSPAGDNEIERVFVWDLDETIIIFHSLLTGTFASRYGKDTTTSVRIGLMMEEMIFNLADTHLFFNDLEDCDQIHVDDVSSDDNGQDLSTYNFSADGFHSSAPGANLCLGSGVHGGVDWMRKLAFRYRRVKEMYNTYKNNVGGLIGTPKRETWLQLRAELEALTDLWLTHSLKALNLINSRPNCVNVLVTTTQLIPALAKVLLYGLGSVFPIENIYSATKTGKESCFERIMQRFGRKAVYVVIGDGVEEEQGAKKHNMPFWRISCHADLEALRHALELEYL
Target sequence (Q15475 whole entry, looked up): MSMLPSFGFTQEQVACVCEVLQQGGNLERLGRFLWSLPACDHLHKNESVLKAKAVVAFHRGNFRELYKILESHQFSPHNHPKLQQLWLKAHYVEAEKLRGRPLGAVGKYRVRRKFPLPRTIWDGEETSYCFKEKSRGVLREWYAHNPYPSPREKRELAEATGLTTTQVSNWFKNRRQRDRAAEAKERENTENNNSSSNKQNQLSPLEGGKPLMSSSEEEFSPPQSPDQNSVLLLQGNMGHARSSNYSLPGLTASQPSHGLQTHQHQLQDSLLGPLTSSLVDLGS
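AlphaScreen with GST-Six1 and His-Eya2 (5X mix: 250 nM and 500 nM), glutathione donor and nickel acceptor beads; buffer 50 mM Tris pH 8.0, 300 mM NaCl, 1 mM TCEP; 1 h at 37 C in the dark.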
D2 agonist – Beta-Arrestin HTS for Positive Allosteric Modulators of the Human D2 Dopamine Receptor: Agonists | AID 624465, 2012 | D(2) dopamine receptor (Homo sapiens), P14416 | DiscoveRx PathHunter D2 beta-arrestin, luminescence, 90 min; 100% = 57 uM dopamine signal | activation, % (test concentration not listed) | 360,000 compounds, 0.084% hits; in the data active = activation above about 40%; inconclusive = about 15% to 40%; inactive = below about 15%; note: compound concentration not given in the record; the text of the record calls up to 30% inactive
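Agonist mode: compounds alone added to overnight-plated D2 PathHunter cells for 90 min at 37 C, with 57 uM final dopamine (EC100) defining full response. Beta-arrestin recruitment detected by chemiluminescent reagent, read after 1 h at ambient temperature.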
CtBP-E1A blk – qHTS Assay for Inhibitors of the CtBP/E1A Interaction; 340,000 compounds, 0.49% hits; AlphaScreen GST-E1A/His-CtBP binding, 1536-well; hits give low values; control for the full effect not named in the record; CtBP / adenovirus E1A interaction (AlphaScreen); AID 651724, 2012; activity change, % (no concentration beside the values); in the data active means activity change below about -65%; inconclusive means about -30% to -65%; inactive means above about -30%; note: % is set by controls: 0 for no effect and ±100 for the full control effect
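Homogeneous bead-based format: GST-tagged E1A captured on glutathione donor beads, His-tagged CtBP on nickel acceptor beads; compounds precede bead addition by 2 h at 37 °C.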
* marks the source's active call; other numbers are inactive results; ? = inconclusive; / = no result given; & = joins results of further samples; [ ] = another dose, or the depositor's remark. Random draw from the library, and some 3.7% of all compounds hit somewhere here.

SMILES	PINK1 modulator	Sfp inh	D2 potentiator	TRPV1 PAM	Six1-Eya2 inh	D2 agonist	CtBP-E1A blk
O=C(c1cccc(S(=O)(=O)N2CCc3ccccc32)c1)N1CCCC(C(F)(F)F)C1 (stereo not given)	2.8%	/	-11	4	1	-12	7
CSc1ncnc2c1ncn2CCCNCC(C)c1ccccc1 (stereo not given)	1.0%	/	/	/	-1	0.5	1
Cc1ccc(S(=O)(=O)Oc2ccc(/C=C(/NC(=O)c3ccccc3)C(=O)O)cc2)cc1	-2.1%	24%	-4	3	-5	1.7	-14
CCOC(=O)CNC(c1ccccc1)c1cc(Br)ccc1NC(=O)CCN1CCOCC1 (stereo not given)	2.3%	16µM*	-21	0	1	-6.6	/
COc1cccc(-c2cc(C(=O)Nc3cnn(Cc4ccc(F)cc4)c3)no2)c1	14%[38.3 µM]	13%	2	5	2	0.1	-3
COc1ccc(C(=O)CNc2ccc(C)cc2C)cc1	2.1%	8%	-23	1	-9	-15	-1
CC(C)(CO)CNC1CCCN(C2Cc3ccccc3C2)C1 (stereo not given)	0.6%	3%	-10	8	0	8.0	2
CCC1CCCCN1Cc1nc2c(c(=O)n(C)c(=O)n2C)n1Cc1ccccc1 (stereo not given)	1.3%	13%	-4	-11	-4	0.5	-1
CC(C)Oc1ccc(S(=O)(=O)N2CCCCC2)cc1NC(=O)C1CSC2(C)CCC(=O)N12 (stereo not given)	1.1%	/	-8	-3	-1	-2.5	-4
CC(NC(=O)COC(=O)c1ccc(S(=O)(=O)N2CCOCC2)cc1)c1ccccc1 (stereo not given)	0.3%	/	-13	/	24	0.5	0
O=C(NCc1ccncc1)[C@@H]1CCCN1C(=O)[C@@H]1CCCN1C(=O)c1ccccc1Cl	-0.6%	/	/	/	6	/	5
Nc1nnc(SCc2ccc(Cl)cc2)s1	0.3%	8%	-2	-7	2	-3.9	7
CC(=O)c1c(C)oc2ccc(NS(=O)(=O)c3ccccc3)cc12	-0.4%	8%	1	6	-3	-1.6	3
COc1ccccc1N1CC(C(=O)OC(C)C(=O)Nc2ccc(F)cc2)CC1=O (stereo not given)	2.1%	/	-9	/	6	-1.8	-1
O=C(Oc1cccc(-n2cnnn2)c1)c1sc2ccccc2c1Cl	9.4%	13%	-8	-1	17	-3.6	-1
CCOC(=O)c1c(C)c(C(=O)NCCCN2CCCC2=O)c(C)n1CC	-4.5%[38.3 µM]	-9%	-15	-1	3	0.6	2
CCOc1ccc(NC(=O)c2sc3nc4n(c(=O)c3c2C)CCC4)cc1	18%&9.1%	12%	-5	0	-1	-4.5	-3
CC(C)(C)S(=O)(=O)/C(C#N)=C/c1sccc1C1OCCO1	-0.1%	4%	-5	7	-12	-1.8	2
FCCCOc1ccc(-c2nccc(-c3ccccn3)n2)cc1	6.7%	-16%	-3	7	21	-4.1	/
O=C(CSc1nnc(SCc2ccc(Cl)cc2)s1)N/N=C/c1ccc(Cl)cc1Cl	8.5%	?	-54	1	2	-5.1	/
O=C(Nc1ccc(N2CCOCC2)cc1)C1CCN(S(=O)(=O)c2cccc(C(F)(F)F)c2)CC1	1.6%	/	-15	/	1	-2.2	-17
CCC(=O)Nc1cc(C)c(NC(=O)C23CC4CC(CC(C4)C2)C3)cn1	-1.6%	-13%	-14	7	-1	-2.5	5
CCC(C)[C@H](NC(=O)N1CCC(C)CC1)C(=O)O (stereo not given in full)	7.5%	1%	2	23	0	-1.4	4
CC(=O)c1ccc(NC(=O)CSc2nnc(-c3ccco3)o2)cc1	-0.2%	1%	8	-6	-1	-0.2	3

Brought forward from above: two entries; new compounds follow.
SMILES	PINK1 modulator	Sfp inh	D2 potentiator	TRPV1 PAM	Six1-Eya2 inh	D2 agonist	CtBP-E1A blk
CCC(C)[C@H](NC(=O)N1CCC(C)CC1)C(=O)O (stereo not given in full)	7.5%	1%	2	23	0	-1.4	4
CC(=O)c1ccc(NC(=O)CSc2nnc(-c3ccco3)o2)cc1	-0.2%	1%	8	-6	-1	-0.2	3
FC(F)(F)c1ccccc1Cc1c(-c2ccc(Cl)cc2)nc2ccc(Cl)cn12	2.8%	/	-6	/	9	-1.8	7
C=CCc1c(C)nc(N2CCSCC2)[nH]c1=O	0.6%	25%	-7	16	-2	3.1	1
O=C(NC1CCN(c2ncccn2)CC1)c1cccc(F)c1	-0.4%	16%	-10	15	-7	-0.3	/
COC(=O)/C=C1/SC(=Nc2ccc(C)cc2C)NC1=O	3.4%	-8%	-27	?	11	-2.9	15
CCCCN1C[C@H](C)[C@@H](CC(=O)Nc2ccccc2)C1=O	1.2%	/	5	/	3	-8.7	0
O=C(NC1CCCC1)C(c1ccncc1)N(CC1CCCO1)C(=O)Cn1nnc(-c2cccs2)n1 (stereo not given)	-2.6%	7%	-1	5	3	0.0	-9
CCNc1nc(NCC)n2c(SCc3ccc(F)cc3)nnc2n1	1.4%	2%	-20	6	-8	-4.1	0
CCOC(=O)C(=O)/C(=C\N(C)C)c1onc(-c2c(Cl)cccc2Cl)c1C(=O)OC	7.2%	-4%	-26	/	-1	-2.4	-1
CCC(Sc1nccn1C)C(=O)Nc1ccc(Cl)cn1 (stereo not given)	-0.9%	13%	-13	-1	1	-0.9	0
Nc1cccc2c1C(=O)N(C(=O)c1ccco1)C2=O	0.8%	-15%	-7	/	10	-1.2	6
COc1ccccc1CN(C)c1nnnn1-c1ccccc1	0.7%	12%	-6	-7	12	7.7	-2
O=C(Nc1cccnc1)c1ccc(COc2ccccc2Cl)o1	4.5%	12%	0	-7	-5	-0.7	-5

Look-ups from the entries so far:
For CtBP-E1A blk, COC(=O)/C=C1/SC(=Nc2ccc(C)cc2C)NC1=O has 15
For PINK1 modulator, Nc1cccc2c1C(=O)N(C(=O)c1ccco1)C2=O has 0.8%
For D2 potentiator, C=CCc1c(C)nc(N2CCSCC2)[nH]c1=O has -7

Further results follow:
SMILES	PINK1 modulator	Sfp inh	D2 potentiator	TRPV1 PAM	Six1-Eya2 inh	D2 agonist	CtBP-E1A blk
C/C(=N\NC(=S)Nc1ccccc1C)C1Cc2ccccc2C(=O)O1 (stereo not given)	2.9%	-11%	-3	7	0	1.7	-19
CCOC(=O)c1sc(NC(=O)c2cc(-c3ccc(C)cc3)nc3ccccc23)c(C#N)c1C	?	20µM*	-25	23	-4	-3.4	0
CCCCCCc1cc2cc(C(=O)Nc3cccc(OC)c3)c(=O)oc2cc1O	?	11%	7	-7	9	4.4	-5
Cc1ccnc(SCC(=O)c2ccc(Br)s2)n1	-0.5%	79µM*	-10	-6	5	-2.4	5
CCn1c(SCC(=O)c2ccc(NS(=O)(=O)c3ccccc3)cc2)nnc1-c1cccs1	/	?	-14	1	-3	-2.6	-5
Cn1cc(SCC(=O)Nc2nccs2)c2ccccc21	1.3%	-8%	-15	15	0	-8.5	-5
Cc1c(C)c(C)c(S(=O)(=O)N2CCC3(CC2)OCCO3)c(C)c1C	4.8%	7%	-19	0	1	-0.4	5
CC(C)n1nnc2c(=O)oc3ccccc3c21	8.9%	15%	-12	3	-4	1.6	2
O=C(C1=C(O)C(=O)N(CCc2ccccc2)C1c1cccs1)c1ccco1 (stereo not given)	0.7%	22%	1	0	-2	-1.1	0
Cn1c(=O)c2[nH]c(CSCc3ccccc3)nc2n(C)c1=O	0.9%	/	-16	/	4	1.8	-1
CCCn1cc(CN2CCC(n3nccc3NC(=O)c3ccc4c(c3)OCO4)CC2)c(C)n1	0.5%	15%	-9	3	0	7.3	6
Cc1ccc(C23CC4CC(CC(C(=O)OCC(=O)NC5CCS(=O)(=O)C5)(C4)C2)C3)cc1 (stereo not given)	-1.7%	8%	-23	3	0	-2.1	2
O=C(O)c1ccc(NC2OC[C@@H](O)[C@H](O)[C@H]2O)cc1 (stereo not given in full)	2.6%	/	-2	-4	-3	-1.8	3
CCOC(=O)c1ccc(NC(=S)NCc2ccc(S(N)(=O)=O)cc2)cc1	-0.1%	12%	2	-12	-1	0.5	6
COCCn1nnnc1C(c1cc(OC)ccc1OC)N1CCc2ccccc2C1 (stereo not given)	-1.9%	1%	-6	-31	-2	-3.2	1
Cc1ccc(S(=O)(=O)NCCc2ccncc2)cc1[N+](=O)[O-]	0.1%	21%	1	2	4	-2.0	4
C=C(C)C(=O)Nc1cccc(C2=NOC3(C2)C[C@@H](C(N)=O)N(C(=O)CC(c2ccccc2)c2ccccc2)C3)c1 (stereo not given in full)	-0.5%	1%	-1	7	?	0.5	0
COCC(=O)N(C)C[C@@H]1Oc2cc(-c3ccc(F)cc3)ccc2S(=O)(=O)N([C@H](C)CO)C[C@H]1C	6.0%	/	-9	/	13	8.7	0
COc1ccc(/C=C2\SC(=S)N(CC(=O)OCC(=O)Nc3ccc(C)cc3Cl)C2=O)cc1	15%	-24%	0	6	-2	0.2	-6
O=C(Nc1nnc(-c2ccccc2)o1)c1cc(-c2cccs2)nc2ccccc12	2.6%	12%	-2	?	-7	-5.8	2
Cc1ccsc1/C=C(\C#N)C(=O)NCCCN1CCOCC1	-0.6%	-6%	-14	-4	6	-3.1	/
O=C1[C@@H]2Cc3c([nH]c4ccccc34)CN2C(=O)CN1CCCO	0.1%	9%	3	22	-1	-5.4	5
Cc1nn(-c2ccccc2)c(N2CCCC2)c1C=O	-0.8%	15%	-10	-1	0	3.5	/
CN(C)S(=O)(=O)c1ccc(C(=O)Nc2cc3c(cc2C(=O)O)OCCCO3)cc1	-1.0%	12%	-1	-3	-4	-2.9	0
CCC1CCCCN1C(=O)CSc1nnc(N)s1 (stereo not given)	0.2%	/	-1	/	8	1.0	4
COC(=O)C(C(=O)OC)C(C[N+](=O)[O-])c1ccc(OC)cc1 (stereo not given)	-2.7%	2%	-4	0	4	-1.0	1
COc1ccc(CCN(C)C(=O)Cc2ccc(-c3ccccc3)cc2)cc1OC	-0.3%	?	-4	2	10	-4.9	-7
COc1cccc(CC2(CO)CCCN(Cc3ccc(-c4ccco4)cc3)C2)c1 (stereo not given)	1.9%	-22%	-48	0	-12	-2.9	-9
